VACV mCherry inh = vaccinia inhibition (mCherry reporter). Vaccinia virus mCherry reporter infection, fluorescence; about a quarter of the inactives have no number. Potency, µM (doses to about 36.5 µM), inactives show at the top dose activity change, negative = inhibition, hits mostly inhibitors. 0.63% of 310,000 active. AID 720579; active = well fitted inhibition curve with a large enough effect; inconclusive = small, poorly fitted or top-dose-only effect; inactive = no such curve, though single readings can be large or run the other way; tested in A549 cells; further: nearly all actives have a fitted effect of over 35% in size; inactives centre near -10
Vaccinia Venus = vaccinia inhibition (Venus reporter) | Vaccinia virus Venus reporter expression, fluorescence | Potency, µM (highest dose often 36.5 µM), inactives show at the top dose activity change, negative = inhibition, usual class: inhibitors | 0.46% of 330,000 active | AID 720580; active means well fitted inhibition curve with a large enough effect; inconclusive means small, poorly fitted or top-dose-only effect; inactive means no such curve, though single readings can be large or run the other way; tested in A549 cells; further: nearly all actives have a fitted effect of over 30% in size; inactives centre near -10
Active calls of the source: *; i = inactive; ? = inconclusive; . = not tested or not shown; [ ] = remark or other dose. On the % scale 0 is the no-effect control and ±100 the full control effect; potency means the concentration at half of the fitted maximal effect.

SMILES | VACV mCherry inh | Vaccinia Venus
Cc1ccccc1C(=O)N1CCC(C(=O)N2CCN(S(=O)(=O)c3ccccc3F)CC2)CC1 | i | -19%
CCN(c1ccc(OC)cc1)S(=O)(=O)c1nnc(NC(=O)COc2ccc(F)cc2)s1 | -22% | -16%
CC(C)(C)SCCNC(=O)c1ccc(Cl)c([N+](=O)[O-])c1 | -16% | -23%
O=C(NCCc1c[nH]c2ccccc12)C(=O)NCC1OCCN1S(=O)(=O)c1ccc(Cl)cc1 (stereo not drawn) | ? | ?
CCCCC1CCc2[nH]nc(C(=O)O)c2C1 (stereo not drawn) | i | -5%
C=C(C)COc1ccc(C2NC(=O)c3ccccc3O2)cc1OCC (stereo not drawn) | -18% | -5%
CCOC(=O)CN1CC23C=CC(O2)C(C(=O)Nc2ccc(F)cc2)C3C1=O (stereo not drawn) | -1% | 2%
CC(C)(C)NC(=O)NC(=O)COC(=O)C1c2ccccc2Oc2ccccc21 | -12% | -16%
O=C(Cn1nnc2ccccc2c1=O)NCc1ccc(Cl)cc1 | 0% | -8%
CCOC(=O)C1(C)CCCN1C(=O)c1csnn1 (stereo not drawn) | 5% | 8%
COc1ccc(Br)cc1CNC(=O)c1ccc2c(c1)N(C)CCS2 | ? | -14%
NC(=O)CSc1nnnn1-c1ccccc1Cl | -4% | -3%
C=CCN(C(=O)CSC1=NC(=O)CN1C(C)=O)c1nc(C)c(-c2ccccc2)s1 | ? | ?
CCCCN(C)CCNC(=O)C1CCN(c2nc3ccc(CC)cc3s2)CC1 | -6% | -10%
CCN(C(=O)CSc1nnc(-c2ccccc2)o1)c1c(N)n(Cc2ccccc2)c(=O)[nH]c1=O | -3% | -9%
Cc1cc(C)c2c(-n3cccc3)c(NC(=O)OCc3ccccc3)sc2n1 | . | -19%
COc1ccccc1CNC(=O)c1cc2c(s1)CS(=O)(=O)C2 | -15% | -8%
CCOC(=O)[C@@H](NC(=O)CC[C@H]1O[C@@H](n2ccc(=O)[nH]c2=O)[C@H](O)[C@@H]1O)C(C)C | 5% | -18%
COc1ccccc1NCC(=O)N/N=C/c1sccc1C | -11% | -11%
CCOc1ccccc1OCCCC(=O)Nc1sccc1C(N)=O | -29% | -24%

Some values from the results shown.
Cc1ccccc1C(=O)N1CCC(C(=O)N2CCN(S(=O)(=O)c3ccccc3F)CC2)CC1 – Vaccinia Venus: -19%
CC(C)(C)NC(=O)NC(=O)COC(=O)C1c2ccccc2Oc2ccccc21 – Vaccinia Venus: -16%
O=C(Cn1nnc2ccccc2c1=O)NCc1ccc(Cl)cc1 – Vaccinia Venus: -8%

Continued:
SMILES | VACV mCherry inh | Vaccinia Venus
CC1(C)C(=O)CC[C@@]2(C)C1CC(O)[C@@]1(C)C3=CC(=O)OC(c4ccoc4)[C@]3(C)CCC21 (stereo partly drawn) | -3% | -28%
Cc1csc(SCC(=O)Nc2cccc(S(=O)(=O)N3CCCC3)c2)n1 | . | -8%
COc1ccc(S(=O)(=O)N2CCCCCC2)cc1C(=O)N(C)Cc1ccc(Cl)cc1Cl | ? | -4%
CCCCC(=O)Nc1ccc(C(=O)Nc2ccc(OC)cc2[N+](=O)[O-])cc1 | -11% | ?
CC(C)CC(=O)Nc1ccc2c(c1)OCO2 | -9% | -4%
COc1ccc(C(=O)Nc2ccccc2Cc2ccccc2)c(OC)c1 | ? | -30%
Cc1ccc(C(=O)NCCNC(=O)c2ccccn2)cc1 | -11% | 1%
CCOC(=O)c1cc2c(c(CCO)n1)[C@@H](CCO)N(S(=O)C(C)(C)C)C2 (stereo partly drawn) | -24% | -3%
CCn1ncc2c(OCc3ccc(C#N)cc3)cc(C)nc21 | ? | -20%
COc1cccc(NC(=O)C2CCN(c3ccc(Sc4ccc(C)cc4)nn3)CC2)c1 | -12% | -16%
COc1cc(/C=N/NC(=O)c2ccccn2)cc2c1OCO2 | i | 1%
Cc1ccc(CNC(=O)Cn2cnc3c(NC(=O)OCc4ccccc4)ncnc32)o1 | i | -11%
CC(=O)c1cc(CN2CCN(Cc3ccccc3)C(CCO)C2)cs1 (stereo not drawn) | -3% | -1%
Cn1c(NC(=O)c2ccc(F)c(F)c2)cc(=O)n(C)c1=O | i | -20%
COc1ccc(-c2ncc(CN3CCN(CCC(C)C)C(CCO)C3)cn2)cc1 (stereo not drawn) | i | -13%
O=C(O)C1CCCCC1C(=O)NC1CCCCC1 (stereo not drawn) | -11% | -5%
CN1CCN(C(=O)CSc2ccc(C(F)(F)F)cc2[N+](=O)[O-])CC1 | i | 1%
O=C(NCc1ccccc1)c1ccc(Cl)nc1 | -6% | -5%
CCOC(=O)C1CCN(S(=O)(=O)c2c(C)[nH]c(=O)[nH]c2=O)CC1 | . | 1%
O=C(CSc1nc2ccccc2[nH]1)N/N=C/C=C\c1ccccc1[N+](=O)[O-] | -21% | -3%

Looked up by structure from the list above (4):
SMILES | VACV mCherry inh | Vaccinia Venus
CCn1ncc2c(OCc3ccc(C#N)cc3)cc(C)nc21 | ? | -20%
Cn1c(NC(=O)c2ccc(F)c(F)c2)cc(=O)n(C)c1=O | i | -20%
COc1cccc(NC(=O)C2CCN(c3ccc(Sc4ccc(C)cc4)nn3)CC2)c1 | -12% | -16%
CN1CCN(C(=O)CSc2ccc(C(F)(F)F)cc2[N+](=O)[O-])CC1 | i | 1%

More entries
SMILES | VACV mCherry inh | Vaccinia Venus
COc1ccc(CC(=O)Nc2cc(-c3cn4cccnc4n3)ccc2OC)cc1 | -7% | -3%
N#Cc1ccc(C(=O)Nc2ccc([N+](=O)[O-])cc2)c(F)c1 | i | -14%
O=C1C2CC=CCC2C(=O)N1c1ccc(NCCc2ccccc2F)c([N+](=O)[O-])c1 (stereo not drawn) | -20% | -19%
COc1ccc(Cc2nc3ccc(C(=O)NCCn4ccnc4C)cc3o2)cc1OC | 0% | 0%
CC(C)c1ccc(NC(=O)c2ccc(F)c(S(=O)(=O)N3CCc4ccccc4C3)c2)cc1 | ? | ?
CCCCCCCn1c(=N)n(CC(=O)c2ccco2)c2ccccc21 | -20% | -26%
O=C(C1CCCCC1)N1CCc2ccccc21 | i | -10%
COc1ccccc1NC(=O)C(=O)NCCc1csc(-c2cccc(F)c2)n1 | -22% | -5%
CC1(C)CC(=O)C(N=Nc2ccc(F)cc2)=C(O)C1 | ? | -9%
C=CCn1c(SCCNC(C)=O)nc2cc(-c3ccccc3)sc2c1=O | -23% | -4%
COc1ccccc1NC(=O)c1ccccc1-c1ccccc1C(=O)O | -7% | 2%
CCn1c(=O)c2c(nc(SCC(=O)NCC3CCCO3)n2C)n(C)c1=O (stereo not drawn) | -5% | -9%
O=C(COC(=O)c1ccc2c(c1Cl)C(=O)c1ccccc1C2=O)NC1CCCCC1 | -17% | -7%
COc1cccc(CNC(=O)c2ccc(Cl)c(NC3=NC4CS(=O)(=O)CC4S3)c2)c1 (stereo not drawn) | 12%[7.34 µM] | 0%[7.34 µM]
O=C(OCC(=O)N1CCOCC1)c1ccccc1O | -5% | -8%
COc1ccc(NC(=O)CS(=O)c2ccc(Cl)c(Cl)c2)cc1 (stereo not drawn) | -13% | -8%
CCOC(=O)c1nn(-c2ccc(C)cc2)c(=O)cc1OCC(=O)Nc1cccc(C)c1 | -20% | -4%
CCOc1ccc(C(=O)Nc2c3c(nn2-c2ccc(C)cc2)CS(=O)C3)cc1OCC (stereo not drawn) | 23% | -10%
CCn1nnnc1SCC(=O)N1c2ccccc2CCc2ccccc21 | ? | ?
CCOC(=O)Cn1c(CN2CCOCC2)nc2c1c(=O)[nH]c(=O)n2C | i | 0%
CCOC(=O)C1=C(C)N=C2SC(C)C(=O)N2C1c1ccccc1 (stereo not drawn) | i | 3%
O=C(CNC(=O)c1ccc(F)cc1)N/N=C/c1cc(Br)ccc1OC(=O)/C=C/c1ccco1 | ? | 10%
CS(=O)(=O)N1CCN(c2ccccc2NC(=O)CSc2nnc(-c3ccco3)o2)CC1 | -17% | -3%
COc1cc(OC)cc(-c2nc3nc(C)c(CCC(=O)Nc4ccc(Cl)cc4)c(C)n3n2)c1 | -6% | -8%
CCn1c(SCC(=O)Nc2cccc(S(=O)(=O)N(C)c3ccccc3)c2)nnc1C1CC1 | -13% | -26%
O=C(Nc1ccc(Br)cc1)c1cc(S(=O)(=O)NC2CCCC2)ccc1F | -16% | -16%
CCOc1ccc(S(=O)(=O)N2CCN(c3ccc(C)cc3C)CC2)c2ccccc12 | 5% | 7%
CCCCNc1c(-c2ccc(OC)c(SC(C)CC)c2)nc2cc(C)ccn12 (stereo not drawn) | 25µM* | ?
CC(C)CN1CCN(CCCOC(=O)Nc2cccc3ccccc23)CC1C (stereo not drawn) | i | -8%
O=C1CC(N2CCN(c3ccccc3Cl)CC2)C(=O)N1c1ccc(F)cc1 (stereo not drawn) | -10% | -4%
COc1ccccc1CNC(=O)C1CCC(CNS(=O)(=O)c2cccc3cccnc23)CC1 (stereo not drawn) | -28% | -13%
COc1ccc(C2C=C(c3ccc(C)cc3)Nc3ncnn32)cc1 (stereo not drawn) | . | -26%
CCC(Oc1ccc(F)cc1)C(=O)Nc1nc2c(s1)CCCC2 (stereo not drawn) | 4% | -7%
O=C(COC(=O)CNS(=O)(=O)c1ccc(Cl)cc1)NC1CCCCC1 | i | -2%
Cc1c(C)c2c(OCC(=O)NCC(O)c3ccccc3)cc3c(c2oc1=O)CCC(C)(C)O3 (stereo not drawn) | -12% | -13%
Cc1nnc(SCC2=C(C(=O)O)N3C(=O)C(NC(=O)COc4ccc(F)cc4)C3SC2)s1 (stereo not drawn) | -14% | -9%
Cc1cccc(N2CC(O)(c3cccs3)[N+]3=C2CCCC3)c1 (stereo not drawn) | -11% | -3%
CC1(c2ccccc2)NC(=O)N(CC(=O)Nc2cc(Cl)ccc2N2CCOCC2)C1=O (stereo not drawn) | i | -21%
C=CCNc1ccc(C(=O)O)cc1 | -4% | 3%
c1ccc(NCc2cccnc2)cc1 | . | -13%
O=C(COc1ccccc1)N/N=C/c1ccc2c(c1)OCO2 | -19% | -17%
CCCCn1c(=O)[nH]c(=O)c2c1nc(CN(C)Cc1cccc(OC)c1OC)n2CCC | i | -17%
COC(=O)c1ccc(CNC(=O)/C=C/[C@H]2O[C@@H](n3cc(C)c(=O)[nH]c3=O)C[C@@H]2O)cc1 | 18% | 2%
COc1cc(C(=O)NNC(=O)c2cc(-c3ccccc3)n[nH]2)cc(OC)c1C | -2% | -5%
CCOc1ccc(S(=O)(=O)N2CCN(C(=S)NCC3CCCO3)CC2)cc1 (stereo not drawn) | -12% | -5%
COc1cccc(NC(=O)CNC(=O)[C@@H]2Cc3ccccc3CN2C(=O)OC(C)(C)C)c1 | -2% | -23%
CN1CCN(S(=O)(=O)c2ccc3c(c2)C(C)(C)C(=O)N3C)CC1 | i | -2%
CN=C1S/C(=C\c2ccc(Cl)cc2)C(=O)N1C | -18% | -2%
COc1ccc(/C=C/c2sc3ccccc3[n+]2CCCCI)cc1OC | 32%[activator] | 2%
Cc1cccc2sc(N3CCN(C(=O)c4ccco4)CC3)nc12 | -13% | -10%
CCOc1ccc(N2C(=O)C(CC(=O)Nc3ccccc3)N(Cc3ccccn3)C2=S)cc1 (stereo not drawn) | -14% | ?
CC(=O)NCCNC(=O)c1ccc2c(=O)n(CCc3ccccc3)c(=O)[nH]c2c1 | -4% | 2%
CCN1C[C@]2(CO)CC[C@H](OC)[C@@]34C5C[C@H]6[C@H](OC)C5[C@](O)(C[C@H]6OC)[C@@](O)(C(OC)C23)[C@@H]14 (stereo partly drawn) | 0% | -5%
CCOc1cc(-c2nc(-c3ccc(-c4ccc(OC)cc4)nc3OC)no2)cc(OCC)c1OCC | -3% | -5%
Cc1ccc(S(=O)(=O)N2CCC(C(N)=O)CC2)cc1C(=O)NC1CCCCC1 | i | -2%
c1cncc(-c2nnc(SCc3cccc4ccccc34)o2)c1 | i | -16%
Cc1ccc(Cl)cc1N1CCN(S(=O)(=O)c2ccc3c(c2)CCN3C(=O)C2CCC2)CC1 | -9% | -1%
COc1ccccc1CN1CN(S(=O)(=O)c2ccccc2)c2nc3ccccc3nc21 | -16% | -22%
O=C(CN1CCC(C(=O)c2ccc3c(c2)OCCO3)CC1)NCc1ccc(F)cc1 | -28% | -5%
CCOc1ccc(C2CC(=O)c3c([nH]c(C(=O)OCc4ccccc4)c3C)C2)cc1 (stereo not drawn) | -16%[7.34 µM] | -17%[7.34 µM]
Cc1nn(C)c(C(=O)NN)c1Cl | -3% | 0%

Sorted by SMILES length (highest first): some entries from above
SMILES | VACV mCherry inh | Vaccinia Venus
CCN1C[C@]2(CO)CC[C@H](OC)[C@@]34C5C[C@H]6[C@H](OC)C5[C@](O)(C[C@H]6OC)[C@@](O)(C(OC)C23)[C@@H]14 (stereo partly drawn) | 0% | -5%
CCCCn1c(=O)[nH]c(=O)c2c1nc(CN(C)Cc1cccc(OC)c1OC)n2CCC | i | -17%
CN=C1S/C(=C\c2ccc(Cl)cc2)C(=O)N1C | -18% | -2%

Reformatted: 4 of the compounds above
compound: CCN1C[C@]2(CO)CC[C@H](OC)[C@@]34C5C[C@H]6[C@H](OC)C5[C@](O)(C[C@H]6OC)[C@@](O)(C(OC)C23)[C@@H]14 (stereo partly drawn)
  VACV mCherry inh = 0%
  Vaccinia Venus = -5%
compound: CN1CCN(S(=O)(=O)c2ccc3c(c2)C(C)(C)C(=O)N3C)CC1
  VACV mCherry inh = i
  Vaccinia Venus = -2%
compound: CCOc1ccc(C2CC(=O)c3c([nH]c(C(=O)OCc4ccccc4)c3C)C2)cc1 (stereo not drawn)
  VACV mCherry inh = -16%[7.34 µM]
  Vaccinia Venus = -17%[7.34 µM]
compound: COc1cc(C(=O)NNC(=O)c2cc(-c3ccccc3)n[nH]2)cc(OC)c1C
  VACV mCherry inh = -2%
  Vaccinia Venus = -5%
